# Screens: PubChem BioAssay, several laboratories
# Hsc70 ATP site – Hsc70 inhibitors, probe displacement, primary screen, biochemical, fluorescence polarization (AID 568); Heat shock cognate 71 kDa protein (Homo sapiens); 83,000 tested, under 10 active; one-dose displacement, % at 20 µM; IC50 in µM for titrated hits; Hsc70 fluorescence polarization, probe displacement; higher % means a stronger effect; strong numbers were not always called active;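 active = displacement above 50% without optical interference and an IC50 on retest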;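 also: ATPase domain with a fluorescein-tagged ATP probe; 0% = vehicle and 100% = excess ADP; read after one hour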
# WNV NS2B-NS3 inh – inhibitors of WNV NS2B-NS3 protease, primary screen, biochemical, fluorogenic substrate; 65,000 tested, 0.18% active; fluorogenic substrate Ex360/Em465; hits give low values; z-score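 (tested at a level between 10 and 100 µM)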; Genome polyprotein (West Nile virus), P06935;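 active = z-score at -3 or under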;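 also: score is relative to mean and spread of the compound wells of a plate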
# Target sequence (P06935 1371-1501 limits assumed): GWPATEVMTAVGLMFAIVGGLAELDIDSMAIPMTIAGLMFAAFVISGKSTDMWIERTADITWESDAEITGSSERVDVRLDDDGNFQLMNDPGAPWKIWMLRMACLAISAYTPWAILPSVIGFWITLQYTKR
# Target sequence (P06935 1502-1679 limits assumed): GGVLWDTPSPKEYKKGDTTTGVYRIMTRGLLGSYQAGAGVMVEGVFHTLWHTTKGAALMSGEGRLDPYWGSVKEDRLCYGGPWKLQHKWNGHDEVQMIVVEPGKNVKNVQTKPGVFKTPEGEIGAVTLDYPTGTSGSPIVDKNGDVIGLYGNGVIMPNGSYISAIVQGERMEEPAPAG
# MT1-MMP promoter – inhibitors of MT1-MMP promoter transcription, cell-based, luciferase reporter, luminescence (AID 618); MT1-MMP promoter luciferase reporter cells, luminescence; calls from a first round at 10 µM; hits with a dose series show EC50 in µM; 87,000 tested, 0.62% active;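 active = over half of the reporter light lost at 10 µM or EC50 under 50 µM; inactive = the rest and hits that failed the dose series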;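 also: actives suppress MT1-MMP promoter-driven transcription so potencies describe inhibitors; HT1080 fibrosarcoma cells; overnight exposure; toxic or luciferase-blocking compounds were not removed from the actives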
# Starred values were filed as active, the others as inactive; i = inactive; . = not tested or not shown; + = active, no number. Not all compounds are listed. The share of hits here may be higher or lower than overall.
molecule | MT1-MMP promoter | WNV NS2B-NS3 inh | Hsc70 ATP site
O=C1CCC(C(=O)OCC(=O)N2N=C3/C(=C/c4ccccc4)CCCC3C2c2ccccc2)N1 (stereo not given) | i | . | -2.7%
COc1cccc(-n2nnc3c(=O)n(Cc4cccc(C)c4)cnc32)c1 | i | -0.61 | -6.9%
O=C(c1ccco1)N1CCN(C/C=C/c2ccccc2)CC1 | i | 0.44 | -6.3%
CC1(C)N=C(c2cccs2)C(C)(C)N1O | i | . | -0.3%
CCCOC(=O)c1ccc(NC(=O)c2ccoc2C)cc1 | i | 0.54 | -7.6%
CCOc1cc(C)cc2oc(=O)cc(-c3ccccc3)c12 | i | . | 3.3%
CCCCOC(=O)Nc1cc(Cl)ccc1C | i | . | 2.5%
O=C(COC(=O)CCC(=O)c1cccs1)Nc1ccc(S(=O)(=O)N2CCOCC2)cc1 | i | -1 | 5.9%
Nn1c(SCc2nc3ccccc3[nH]2)nnc1-c1ccccc1 | i | . | -1.1%
C=CCNC(=O)c1ccccc1NC(=O)Nc1ccccc1 | i | -1.2 | 6.1%
COc1ccc(Br)cc1-c1noc(-c2ccccc2)n1 | i | -0.09 | -1.0%
COc1ccc(CCNc2cc(=O)[nH]c(N)n2)cc1 | i | 0.91 | -2.4%
CC(C)c1cc(C(F)(F)F)n2nc(C(=O)Nc3ccc4c(c3)OCO4)cc2n1 | i | 1.9 | 6.9%
CCN(CC)C(=O)c1ccc(C)c(Br)c1 | i | 0.0047 | -3.0%
Cc1sc2nc3c4ccccc4c(NCc4ccco4)nn3c(=O)c2c1C | i | -3.3* | -17%
O=C(Nc1ccccc1Cl)c1cnccn1 | i | -0.18 | 0.0%
CC(=O)Nc1ccc(NC(=O)CSc2ccc(C)cc2)cc1 | i | . | 3.7%
CCOC(=O)C1=NN(c2ccccc2)C2=NC(C)=C(C(=O)OC)C(c3cccs3)N12 (stereo not given) | i | . | 1.3%
CCOc1ccc(N(Cc2cc3ccc(C)cc3[nH]c2=O)C(=O)COC)cc1 | i | -0.18 | 1.5%
COc1ccc(S(=O)(=O)N2Cc3ccccc3CC2C(=O)N2CCOCC2)cc1 (stereo not given) | i | 1.2 | -5.3%
Cc1sc2nc(SC(C)C)nc(N)c2c1C | i | 1.6 | -4.7%
N#Cc1c(SCC(N)=O)nsc1SCc1ccc(Cl)cc1 | i | 0.33 | -9.4%
COC(=O)c1ccccc1N1C(=O)[C@@H]2C(c3ccc(F)cc3)=NO[C@@H]2C1=O | i | -0.83 | -4.0%
CCN(CC)S(=O)(=O)c1csc(C(=O)OCC(=O)c2ccccc2)c1 | i | . | -4.1%
Cc1ccc(CC2CC(=O)N(c3cc(C)on3)C2=O)cc1 (stereo not given) | i | 0.99 | 1.5%
Cn1c(SCc2nn[nH]n2)nc2c1c(=O)n(Cc1ccccc1Cl)c(=O)n2C | i | -0.43 | -1.9%
COC(=O)c1cc(NC(=O)C2CC2)cc(C(=O)OC)c1 | i | 0.66 | -6.5%
CC1(C)Cc2c(sc3c2c2ncnn2c2nnc(SCC(=O)NCc4ccco4)n32)CO1 | i | 0.3 | -1.2%
Cn1c(-c2sc3cc(C(F)(F)F)cnc3c2-c2ccccc2)n[nH]c1=S | i | . | 0.7%
c1cc(-c2nnc3sc(C4CCCCC4)nn23)ccn1 | i | -0.69 | 2.8%
N#CC1=C(N)SC(N)=C(C#N)C1c1ccoc1 | i | -0.24 | -34%
Cc1cccc(N2C(=O)c3cccc4c(N(C)CCO)ccc(c34)C2=O)c1 | i | 0.37 | 2.4%
COc1ccc(OC)c(NC(=O)CSc2nnc(-c3ccco3)n2-c2ccc(C(=O)O)cc2)c1 | i | -1.1 | -1.4%
CCCCOC(=O)C1C2C=CC3(CN(CCc4ccccc4)C(=O)C13)O2 (stereo not given) | i | -1.6 | 2.4%
Cn1c(C(=O)O)c(CC(=O)NCC2COc3ccccc3O2)c2ccccc21 (stereo not given) | i | 1.3 | 0.5%
Cc1cccc2c(=O)c(C(=O)NCc3cccs3)c[nH]c12 | i | . | 3.3%
OCCCNCc1cccc2ccccc12 | i | -0.22 | -5.3%
O=C1c2[nH]nc(-c3ccccc3O)c2C(c2ccc(F)cc2)N1CC1CCCO1 (stereo not given) | i | 0.67 | -6.9%
NC(=O)c1ccccc1NC(=O)/C=C/C(=O)O | i | . | 1.6%
COc1ccccc1-c1csc(Cc2nnc3n2CCCCC3)n1 | i | . | 0.7%
O=C(CCn1c(=O)c2ccccc2n(CC(=O)NC2CCCC2)c1=O)NCCc1ccc(Cl)cc1 | i | . | -2.2%
Cc1cccc(NS(=O)(=O)c2ccc3c(c2)OCCO3)c1 | i | . | 6.1%
Cc1cccc(-c2nc(CS(=O)CC(=O)NCC3CCCO3)c(C)o2)c1 (stereo not given) | i | 1.6 | -2.2%
CN(Cc1ccncc1)C1CC(=O)N(c2ccc(Cl)cc2)C1=O (stereo not given) | i | 1.2 | -1.9%
OCCOCCNc1ncnc2nc[nH]c12 | i | -0.99 | 5.8%
CC(=O)c1cccc(NC(=O)CCS(=O)(=O)c2cccc3nonc23)c1 | i | 0.85 | 3.1%
C(=N\n1cnnc1)/c1ccc2c(c1)OCCO2 | i | -0.43 | -3.3%
O=C1c2ccccc2S(=O)(=O)N1Cc1cc(=O)n2ccsc2n1 | i | -0.45 | 4.8%
COc1ccc(CN(CC(=O)NCC2CCCO2)C(=O)CCC(=O)Nc2cc(C)on2)cc1 (stereo not given) | i | -0.18 | 0.2%
CC(C)c1nc2sc3c(NCc4ccccc4)ncnc3c2c2c1COC(C)(C)C2 | i | . | -1.8%

# (list continues)
molecule | MT1-MMP promoter | WNV NS2B-NS3 inh | Hsc70 ATP site
COc1ccc(Br)cc1-c1noc(-c2ccccc2F)n1 | i | 1.7 | 4.4%
CCCCc1ccc(S(=O)(=O)Nc2cc(C)on2)cc1 | i | -0.52 | -8.1%
CC1CCCN(Cc2nc3c(c(=O)n(C)c(=O)n3C)n2CCCc2ccccc2)C1 (stereo not given) | i | -0.36 | 0.2%
COc1cccc(NC(=O)c2ccc3snnc3c2)c1 | i | . | -3.3%
COc1nc(OC)nc(N2CCC(C(=O)Nc3cccc4ccccc34)CC2)n1 | i | -0.59 | -1.2%
CN(C)CCCOC(=O)c1ccc(Br)cc1 | i | 0.45 | -3.9%
C=CCNC(=O)C1CCN(c2nc(C)cc(-c3ccccc3)n2)CC1 | i | 0.5 | 0.5%
COc1ccc(-c2n[nH]c(=S)n2CC(C)C)cc1 | i | . | 0.2%
Cc1noc(C)c1S(=O)(=O)N1CCCC(C(=O)NCc2ccccn2)C1 (stereo not given) | i | -0.98 | -5.0%
CSCCOC(=O)c1[nH]c2c(c1C)C(=O)CC(c1ccco1)C2 (stereo not given) | + | -0.49 | -1.3%
Cc1ccc(C(=O)c2c[nH]cc2-c2ccccc2)cc1 | i | . | 4.1%
COc1ccc(N(CC(=O)N2CCc3ccccc3C2)S(=O)(=O)c2c(C)[nH]c(=O)[nH]c2=O)cc1 | i | -0.02 | 1.2%
Cc1cc(C)c(OCC(=O)Nc2ccc3c(c2)OCO3)cc1C | i | -0.04 | -2.6%
O=C(CN(C(=O)CNS(=O)(=O)c1ccccc1)C1CCCC1)NCC1CCCO1 (stereo not given) | i | -0.5 | -2.2%
COc1ccc(N2CCN(Cc3nc4c(c(=O)n(C)c(=O)n4C)n3Cc3cccc(C)c3)CC2)cc1 | i | -0.9 | 3.9%
COc1ccc(CCn2c(=N)c(C(=O)NCc3ccco3)cc3c(=O)n4ccccc4nc32)cc1OC | i | 0.0083 | 3.1%
COc1ccc(NC(=O)c2oc3ccccc3c2NC(=O)c2ccc3c(c2)OCO3)cc1 | i | -0.88 | 3.0%
CC1CN(Cc2nc3c(c(=O)n(C)c(=O)n3C)n2Cc2ccc(Cl)cc2)CC(C)O1 (stereo not given) | i | -0.22 | 5.4%
CC(C)N(C(=O)CSc1nc2c([nH]1)c(=O)n(C)c(=O)n2C)c1ccccc1 | i | 1.5 | -0.3%
CCCN(CC(=O)c1cc(C)n(C)c1C)S(=O)(=O)c1cccc(C(F)(F)F)c1 | i | -1.2 | -1.0%
CCCN(C#N)c1nc(NCC)nc(NC(C)C)n1 | i | 0.75 | -5.8%
Cc1cc(/C=N\O)c(C)n1-c1ccncc1 | i | 1.1 | 8.3%
CSc1ccccc1NC(=O)CN(C)S(=O)(=O)c1ccc(F)cc1 | i | . | 1.5%
Cc1nn2c(c1-c1ccccc1)NC1=C(C(=O)CCC1)C2c1cccnc1 (stereo not given) | i | 1.9 | -5.6%
Cc1cccc(NC(=O)c2ccccc2C(=O)O)c1 | i | -0.0061 | -1.0%
CCOC(=O)C1=C(C)NC2=C(C(=O)CCC2)C1c1ccc(N(C)C)cc1 (stereo not given) | i | -0.63 | -2.9%
Cn1c2ccccc2c2nnc(SCN3C(=O)c4ccccc4C3=O)nc21 | i | -1.4 | 3.6%
CC(C)(C)c1ccc(OCC(=O)N2CCN(C=O)CC2)cc1 | i | 0.79 | 2.8%
COc1ccccc1N1CCN(S(=O)(=O)c2cccc(F)c2)CC1 | i | 0.38 | -5.5%
Cc1ccc(CS(=O)(=O)CCC(=O)NCC2CCCO2)cc1 (stereo not given) | i | -0.7 | 0.3%
CCOCc1nnc(NC(=O)CSc2ccccc2)s1 | i | 2.3 | 0.2%
Cc1cc(NC(=O)CCC(=O)N(C2CC2)C2(C(=O)NC3CCCC3)CCC(C)CC2)no1 (stereo not given) | i | 0.05 | -3.2%
CCOC(=O)N1CCN(C(=O)c2ccc3c(=O)n(CCC4=CCCCC4)c(=O)[nH]c3c2)CC1 | i | -1.1 | 2.4%
CCOC(=O)CNC(=O)CSc1nc(C)cc(C)c1C#N | i | -0.18 | -0.1%
CN(C)C(=O)c1ccc(COc2ccccc2Br)o1 | i | -0.62 | 6.6%
O=C(c1ccccc1)N1CCCCC(Sc2nnnn2-c2ccccc2)C1=O (stereo not given) | i | 0.33 | -2.9%
O=c1cc(-c2ccccc2)nc2nc(-c3ccco3)[nH]n12 | i | -0.86 | -3.4%
CN/C(=C/[N+](=O)[O-])NCCSCc1ccc(CN(C)C)o1 | i | 0.15 | -3.8%
Nc1nc2n(n1)C(c1cccs1)CC(c1ccc(Br)cc1)N2 (stereo not given) | i | 0.87 | 5.8%
CCn1cc(C(=O)N2CC=C(c3ccccc3)CC2)c(=O)c2ccc(C)nc21 | i | -0.57 | -8.2%
COc1cccc(-c2nn(C)c3sc(C(=O)N4CCOCC4)cc23)c1 | i | -0.35 | -5.0%
c1ccc(-c2cc(CSc3nc4ccccc4[nH]3)on2)cc1 | i | 0.2 | -2.0%
Cc1ccc(S(=O)(=O)N(CCCO)Cc2cc3c(C)ccc(C)c3[nH]c2=O)cc1 | i | . | 3.5%
CCn1c(CSc2nc(C)cc(C)n2)nnc1SCC(=O)N1CCCc2ccccc21 | i | 1.8 | 1.2%
COc1ccc(NC(=O)CCNC(=O)Cn2ccc3ccccc3c2=O)c(OC)c1 | i | -0.62 | 3.5%
CCn1c(SCC(=O)c2ccc(OC)cc2)nnc1C1CC1 | i | . | 3.2%
CCOC(=O)c1sc(C)c2c(=O)n(CCCN3CCOCC3)cnc12 | i | -0.55 | 2.6%
O=S(=O)(NCC1CCCO1)c1ccc(S(=O)(=O)N(Cc2ccccc2F)C2CCCCC2)cc1 (stereo not given) | i | . | 1.3%
CCOc1ccc(N2C(=O)CN=C2Nc2ccccc2F)cc1 | i | . | 5.5%
Cn1nnc(C(O)CNCc2cccs2)n1 (stereo not given) | i | 0.69 | 0.5%

# Additional results.
molecule | MT1-MMP promoter | WNV NS2B-NS3 inh | Hsc70 ATP site
CCOc1cc(N2CCOCC2)c(OCC)cc1NC(=O)c1nc2nccc(C)n2n1 | i | 0.3 | 4.7%
COc1cc2nc(C3CCC3)n(NC(=O)C(OC(C)=O)c3ccccc3)c(=O)c2cc1OC (stereo not given) | i | 0.63 | 2.0%
Cc1cc(C)cc(Oc2nc(-c3ccccc3)cc(C)c2S(C)(=O)=O)c1 | i | . | 2.6%
Cn1nc(C(=O)NC2=NCCS2)ccc1=O | i | . | -2.8%
CC1(C)Cc2c(sc3c2C(=O)N(c2ccccc2)C2=NCCN23)CS1 | i | . | 5.5%
CC1(C)CC(=O)c2cnc(NC(=O)c3ccco3)nc2C1 | i | -0.71 | 1.5%
COC(=O)C(C(=O)OC)c1ccccc1[N+](=O)[O-] | i | . | 0.5%
CCOC(=O)CNC(=O)Nc1nnc(-c2ccc(OCC)cc2)o1 | i | 0.24 | -4.7%
COc1ccccc1-c1nn2c(=O)cc(C)nc2s1 | i | . | -0.4%
CCCCC(=O)Nc1cccc(-c2nc3ncccc3o2)c1 | i | -1.2 | -2.5%

# Retrieved by structure from above:
molecule | MT1-MMP promoter | WNV NS2B-NS3 inh | Hsc70 ATP site
CCOC(=O)CNC(=O)Nc1nnc(-c2ccc(OCC)cc2)o1 | i | 0.24 | -4.7%
CCOc1cc(N2CCOCC2)c(OCC)cc1NC(=O)c1nc2nccc(C)n2n1 | i | 0.3 | 4.7%
CC1(C)CC(=O)c2cnc(NC(=O)c3ccco3)nc2C1 | i | -0.71 | 1.5%
COc1cc2nc(C3CCC3)n(NC(=O)C(OC(C)=O)c3ccccc3)c(=O)c2cc1OC (stereo not given) | i | 0.63 | 2.0%
